Compound activity from PubChem BioAssay.
KCNQ2 pot – enhances the rat KCNQ2 potassium channel; CHO-K1 KCNQ2, FluxOR thallium flux fluorescence; hits give high values; 0.54% of 310,000 active; B-score at 10 µM; O88943;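 active = fluorescence ratio B-score at least 3 SD of library B-scores, with initial fluorescence B-score within 3 SD, cut at about 5.3 in these data; same plate scores as AID 2156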;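 note: B-score of peak minus minimum over baseline fluorescence ratio after K+ and Tl+ stimulus; positive B-score means potentiation of KCNQ2 with more thallium influx and brighter signal; only the inactives scoring about 0 or higher are listed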
Target sequence (O88943 whole entry, looked up): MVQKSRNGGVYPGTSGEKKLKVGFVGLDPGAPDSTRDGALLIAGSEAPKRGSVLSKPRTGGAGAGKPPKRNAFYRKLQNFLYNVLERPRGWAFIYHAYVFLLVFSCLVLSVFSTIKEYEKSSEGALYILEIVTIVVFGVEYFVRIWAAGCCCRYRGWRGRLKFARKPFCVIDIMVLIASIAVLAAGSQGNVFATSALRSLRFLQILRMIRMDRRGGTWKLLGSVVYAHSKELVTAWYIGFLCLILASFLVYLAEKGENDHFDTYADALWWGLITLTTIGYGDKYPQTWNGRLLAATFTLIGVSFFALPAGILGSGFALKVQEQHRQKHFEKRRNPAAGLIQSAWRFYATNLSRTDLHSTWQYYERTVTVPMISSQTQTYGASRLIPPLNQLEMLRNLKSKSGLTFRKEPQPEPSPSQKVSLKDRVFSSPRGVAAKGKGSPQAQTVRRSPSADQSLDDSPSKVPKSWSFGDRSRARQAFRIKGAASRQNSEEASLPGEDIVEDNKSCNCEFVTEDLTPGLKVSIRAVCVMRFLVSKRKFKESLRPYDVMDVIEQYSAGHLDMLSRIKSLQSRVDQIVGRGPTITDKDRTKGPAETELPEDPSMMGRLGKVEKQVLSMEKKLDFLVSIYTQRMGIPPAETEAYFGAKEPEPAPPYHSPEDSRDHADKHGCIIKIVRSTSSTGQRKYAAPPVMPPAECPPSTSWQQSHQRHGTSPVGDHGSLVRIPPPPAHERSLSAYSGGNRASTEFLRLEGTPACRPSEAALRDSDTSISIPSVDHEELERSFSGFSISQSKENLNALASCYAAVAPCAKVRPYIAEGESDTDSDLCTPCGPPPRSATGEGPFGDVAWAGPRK
KCNQ2 pot baseline – recorded beside KCNQ2 pot, whose call it bears; B-score; compound at 10 µM; measured here: initial fluorescence intensity artifact check;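 brightness before thallium and not channel activity; 0 = typical well and far values either way flag optical interference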
An asterisk follows results filed as active.

SMILES	KCNQ2 pot	KCNQ2 pot baseline
COc1ccc(C(=O)OCCCOC(=O)c2ccc(OC)cc2OC)c(OC)c1	0.05	-0.06
Cc1cccc(NC(=O)C2CCN(C(=O)c3ccco3)CC2)c1C	0.08	-0.79
COc1ccccc1-c1c(-c2ccc(OCC(=O)NN)cc2O)n[nH]c1C(F)(F)F	1.2	-0.66
Cc1c(Nc2nc(-c3ccccc3)cs2)c(=O)n(-c2ccccc2)n1C	1.5	-1
O=C(NCc1cccs1)C(=O)NCC(c1ccco1)N1CCN(c2ccc(F)cc2)CC1 (centres undefined)	2	-0.52
COc1cc(OC)c(S(=O)(=O)Nc2ccc(C(=O)N3CCCC3)cc2)cc1NC(C)=O	0.88	1.2
O=C(COc1cccnc1[N+](=O)[O-])NCCc1ccc(F)cc1	0.55	-2.2
OC(COCCOc1ccc(Br)cc1)CN1CCCCC1 (centres undefined)	0.03	-1.1
O=C(CCN1CCN(c2ccccc2)CC1)Nc1ccc(Cl)cc1	0.11	0.29
O=C(NCCc1ccccc1)c1ccccc1NC(=O)C1CCCO1 (centres undefined)	0.18	1.9
C=CCS/C(=N\n1cnc2ccccc2c1=O)N1CCCCC1	0.36	-0.48
CCOC(=O)C(CC)(CCC(=O)O)c1csc(N)n1 (centres undefined)	0.03	-0.27
CC(=O)Nc1ccc(S(=O)(=O)NCC2CCC(C(=O)NCCC(C)C)CC2)cc1 (centres undefined)	0.49	-1.8
O=C(Cc1ccccc1)NCC(=O)OCc1cccc([N+](=O)[O-])c1	1.1	0.52
Cc1nn(C(=O)c2ccco2)c(C)c1Sc1ccccc1	0.1	1.1
CC1(c2nnc(Cc3ccccc3)o2)CC(c2ccccc2F)=NO1 (centres undefined)	0.85	-0.68
CCOc1ccc(N=C2SC(C(=O)O)CC(=O)N2C)cc1 (centres undefined)	1.4	-0.52
Cc1cc2cc(C)c3nnc(SCC(=O)N4CCCc5ccccc54)n3c2cc1C	1.8	-1.4
CCC(=NCCc1ccccc1)C1=C(O)CCC1=O	0.28	-0.01
N#Cc1ccc(C2=NC(C(F)(F)F)(C(F)(F)F)c3c(n(Cc4ccco4)c(=O)[nH]c3=O)N2)cc1	0.74	0.33
CC(C)NC(=O)C(=O)NCCCN1CCOCC1	0.15	0.56
Cc1cc(N2CCOCC2)nc2ccc(NC(=O)CCC(=O)N3CCN(c4ccccc4)CC3)cc12	0.22	-1.7
Cc1nn(Cc2ccccc2Cl)c(C)c1C(=O)NCC(c1cccs1)N1CCOCC1 (centres undefined)	0.53	0
Cc1ccc2nc(NC(=O)CCn3cccc3)sc2c1	0.58	0.49
O=C(CCOc1ccccc1)Nc1ccccc1F	0.69	-0.08
O=C(Nc1cccc2ncccc12)c1cccc(F)c1	0.17	0.74
NS(=O)(=O)c1cc(C(=O)OCC(=O)NC2CC2)ccc1Cl	0.57	1.3
COc1ccc(CC(=O)NCC(=O)Nc2ccccc2Br)cc1	0.9	0.59
COCCn1nnnc1C(c1cccc(OC)c1OC)N1CCN(C(=O)c2ccco2)CC1 (centres undefined)	0.08	2.1
Cc1cc(C(=O)c2cnc(/N=C/N(C)C)s2)c(F)cc1Cl	0.21	-0.25
CCOc1ccc(-c2nc3scc(-c4cccs4)c3c(=O)[nH]2)cc1	0.86	-0.05
CCC(Sc1nc(=O)cc(N)n1CCc1ccccc1)C(=O)Nc1ccccc1C#N (centres undefined)	0.11	-0.03
O=C(N/N=C\c1cc([N+](=O)[O-])ccc1N1CCCC1)c1ccccn1	0.34	0.99
COC(=O)c1cc(O)cc(OC)c1C(=O)c1c(O)cc(C)cc1O	0.02	-0.81
O=S(=O)(NCc1cccnc1)c1cccc2nsnc12	0.63	0.86
CN(C)c1ccc(C(=O)NCC(c2cccs2)N2CCOCC2)cc1[N+](=O)[O-] (centres undefined)	0.71	0.06
COc1ccc(OC)c(S(=O)(=O)Nc2ccc(O)c3ccccc23)c1	1.1	-3.4
O=C(CSc1nc2ccccc2o1)Nc1ccccc1	0.98	0.79
CC1C(=O)O[C@@H]2C[C@@H](C)[C@@H]3CCC(=O)[C@@]3(C)[C@@H](O)[C@H]12 (some centres undefined)	0.74	1
CC1(C)CC(=O)C=C(NCc2ccccc2)C1	0.17	1.8

Three compounds out of the list above, ordered by their value in KCNQ2 pot, descending.
Molecule	KCNQ2 pot	KCNQ2 pot baseline
Cc1nn(Cc2ccccc2Cl)c(C)c1C(=O)NCC(c1cccs1)N1CCOCC1 (centres undefined)	0.53	0
O=C(Nc1cccc2ncccc12)c1cccc(F)c1	0.17	0.74
COC(=O)c1cc(O)cc(OC)c1C(=O)c1c(O)cc(C)cc1O	0.02	-0.81

Other results
SMILES	KCNQ2 pot	KCNQ2 pot baseline
COC(=O)NC(NC(=S)Nc1ccccc1OC)C(Cl)(Cl)Cl (centres undefined)	0.42	0.14
O=C(CN1CCCCCCC1)NC(=O)NC1CCCCC1	1.7	0.17
Cc1cccc(N2CC(C(=O)O)CC2=O)c1 (centres undefined)	0.48	1.6
Cc1ccc2nc(-c3ccc(NC(=O)CSCC(=O)O)cc3)sc2c1	1.3	-0.02
COc1ccc(S(=O)(=O)N2CCC(O)(c3ccc(Cl)cc3)CC2)cc1OC	0.64	-0.12
O=C(c1ccc(COc2ccccc2Br)o1)N1N=C(C(F)F)CC1(O)C(F)F (centres undefined)	1	-0.01
CCOC(=O)N1CCN(C(=O)CSc2nc(C)nc3c2c(=O)n(C)c(=O)n3C)CC1	2.8	-0.34
CCN(C#N)c1nc(NC(C)C)nc(NC(C)C)n1	0.45	0.68
COc1ccccc1N1CCN(CCC(=O)Nc2ccc3c(c2)OCO3)CC1	1.9	-1.3
CN1CCOCCOCCOCCN(C)C1=S	0.9	-1.8
Cc1cc(C)cc(C(=O)N2CCC(CCC(=O)NC3CC3)CC2)c1	1.4	0.82
COc1ccc(CCN=C(C)C2=C(O)C(c3ccccc3)OC2=O)cc1OC (centres undefined)	0.54	-0.59
CCOC1(OCC)N=C(N)C2(C#N)C(c3cccc(C)c3)C12C#N (centres undefined)	1.1	0.33
O=C(Nc1ccc(Br)cc1)c1cc([N+](=O)[O-])cc([N+](=O)[O-])c1	1.8	-0.29
C=C1c2ccccc2NC(=O)N1c1ccc(OC)cc1	1.4	-0.57
C=CCNC(=S)Nc1ccc(N(C)C)cc1	0.55	0.19
COc1ccc(C(C(=O)NC(C)(C)C)N(C(=O)CCC(=O)Nc2cc(C)on2)c2cccc(C)c2C)cc1 (centres undefined)	0.16	0.29
Cc1cc(C(=O)N/N=C/c2ccco2)n[nH]1	2.7	-0.62
CCNC(=O)NC(=O)C(C)OC(=O)C1CCN(S(=O)(=O)c2ccccc2F)CC1 (centres undefined)	0.86	0.25
CCOC(=O)c1nnn(-c2nc(OC)nc(N(C)C)n2)c1-c1ccccc1	0.35	-0.06

Structural class: the compounds so far containing a COOH group.
SMILES	KCNQ2 pot	KCNQ2 pot baseline
CCOC(=O)C(CC)(CCC(=O)O)c1csc(N)n1 (centres undefined)	0.03	-0.27
CCOc1ccc(N=C2SC(C(=O)O)CC(=O)N2C)cc1 (centres undefined)	1.4	-0.52
Cc1cccc(N2CC(C(=O)O)CC2=O)c1 (centres undefined)	0.48	1.6
Cc1ccc2nc(-c3ccc(NC(=O)CSCC(=O)O)cc3)sc2c1	1.3	-0.02

Continuation.
SMILES	KCNQ2 pot	KCNQ2 pot baseline
CC(=O)N1CCCC(N2CCN(c3cccc(C(F)(F)F)c3)CC2)C1 (centres undefined)	2.2	-1.2
CCCCOC(=O)c1ccc(NC(=S)NC(=O)c2c(Cl)cnn2CC)cc1	5.2	0.02
CCN(C(=O)COc1ccccc1)c1nnc(-c2cccnc2)s1	0.56	-1.5
CCn1c(=O)cc(SCC(=O)NCCCN2CCC(C)CC2)c2ccccc21	0.27	1.4
N/C(=N\OC(=O)CCCc1ccccc1)c1ccccc1Cl	0.69	0.4
NNC(=O)C=C1CCN(c2ncc(C(F)(F)F)cc2Cl)CC1	1	0.01
CC(C)CN(CCCNC(=O)CN1N=C(c2ccc(Cl)cc2)CCC1=O)CC(C)C	3.1	-0.88
NC(=O)c1c(NC(=O)CN2CCN(S(=O)(=O)c3ccccc3)CC2)sc2c1CCC2	0.67	-1.6
CC(NC(=O)Cc1ccccc1)c1cc2c(cc1Br)OCCCO2 (centres undefined)	1.4	-0.78
Cc1c(C)c2ccc(OS(C)(=O)=O)cc2oc1=O	1.4	1.7
O=[N+]([O-])c1cccc(CN(CCO)Cc2ccccc2)c1	0.02	-0.03
Cc1ccsc1CN(C)Cc1nc(C2CC2)no1	0.42	-0.04
CC1CN(CCOc2ccc(Cl)cc2Cl)CC(C)O1 (centres undefined)	0.02	-1.2
CC(C)Nc1ccc(C(CC(N)=O)NC(=O)c2ccccc2)cc1[N+](=O)[O-] (centres undefined)	1.2	-0.13
COc1ccc(O[C@H]2C=C[C@@H](c3ccccc3)O[C@@H]2CO/N=C(\C)CCN2CCc3nc(-c4ccccc4)c(-c4ccccc4)cc3C2)cc1	7.5*	1.2*
Cn1c2ccccc2c2nnc(N/N=C/c3ccc(O)cc3)nc21	0.01	0.36
Cc1nc2ccc(NC(=O)COc3ccccc3F)cc2s1	0.42	-1.2
CCCCN1C2=NCCCN2c2ccccc21	1.7	-0.91
O=C1CCC(=O)N1OCCOc1ccc2c(c1)CCC2	1.1	-0.12
CCOC(=O)C1(CCc2ccccc2)CCN(C(=O)[C@@H]2C[C@@H](C)NC(=S)N2)CC1	0.09	-2.6
FC(F)(F)c1cccc(NCc2n[nH]c(=S)n2C2CCCCC2)c1	2.3	0.23
COc1ccccc1NC(=O)Cc1nnc(SCC(=O)c2ccc(F)cc2)n1C	0.57	0.03
Cc1nn(C)cc1C(C(=O)NC1CCCCC1)N(C(=O)Cc1cccs1)c1ccc(F)cc1 (centres undefined)	1.2	0.03
CCC(=O)N1c2ccc(S(=O)(=O)N3CCCC3)cc2CC1C (centres undefined)	0.68	0.01
CCC(C)N(C(=O)COc1ccc(Cl)c2cccnc12)C1CCS(=O)(=O)C1 (centres undefined)	1.1	4.9
O=C(O)CCC(=O)Nc1cccc(C(=O)Nc2ccc(Br)cc2)c1	2.8	0.05
O=C(Nc1ccc(Oc2cccnc2)cc1)c1cccc([N+](=O)[O-])c1	2.1	-0.28
COCCNC(=O)COc1ccc(Br)cc1Cl	0.09	-0.52
CCOC(=O)CCc1c(C)c2c(C)nn(-c3ccccc3)c2[nH]c1=O	1.2	-2.3
N=c1c(C(=O)NCCN2CCOCC2)cc2c(=O)n3ccccc3nc2n1CCc1ccccc1	1.6	0.23
O=C(Nc1ccc(Cl)cc1C(=O)NCCN1CCOCC1)c1ccc(Cl)cc1Cl	1	0.57
CCCOc1ccc(C2C(C(=O)OC)=CN(CCOC)C=C2C(=O)OC)cc1	0.42	-1.3
Cn1c(=O)c2[nH]c(-c3ccccc3O)nc2n(C)c1=O	0.79	-1
C=CCN(C(=O)c1csnn1)C(C(=O)NC1CCCCC1)c1ccc(F)cc1 (centres undefined)	0.52	-0.73
S=c1[nH]nc(-c2ccc3ccccc3n2)o1	1.8	0.84
COc1ccc(-c2cn3ccc4ccccc4c3n2)cc1	0.54	-1.7
O=C(NCc1ccncc1)c1cn(-c2ccccc2)nc1-c1cccnc1	0.07	0.61
COc1cc(/C=C2/SC(=O)NC2=O)ccc1OCc1ccccc1	1.4	-0.32
CCCCOc1ccc(NC(=O)CSCC(=O)OCC)cc1	0.12	-1.4
CCOC(=O)c1ccc2nc3c(cc2c1)CCS3	2.5	-1.9

Single records, from the list above:
Listed for COc1cc(/C=C2/SC(=O)NC2=O)ccc1OCc1ccccc1 = KCNQ2 pot = 1.4; KCNQ2 pot baseline = -0.32
Listed for O=C(Nc1ccc(Cl)cc1C(=O)NCCN1CCOCC1)c1ccc(Cl)cc1Cl = KCNQ2 pot = 1; KCNQ2 pot baseline = 0.57

Next part
SMILES	KCNQ2 pot	KCNQ2 pot baseline
O=C(NCc1ccccc1)c1cc[n+](CC(=O)c2cccs2)cc1	1.3	0.68
O=C(NCc1ccc2c(c1)OCO2)c1ccc2snnc2c1	0.63	0.27
COC(=O)c1cccc(NC(=S)N2CCOCC2)c1	0.72	-0.09
O=C(O)c1ccc(Nc2ncnc3ccccc23)cc1	0.04	-0.96
O=C(/C=C/c1ccc(F)cc1)NC(=S)Nc1ccccc1O	1.3	-0.14
Cc1cc(/C(N)=N/OC(=O)Nc2ccccc2)no1	1.4	0.07
Cc1cccc(CCNC(=O)C2CCC(CNc3c(N4CCCC4)c(=O)c3=O)CC2)c1 (centres undefined)	0.14	0.48
Oc1[nH]c2c(Cl)cc(Cl)cc2c1N=NC(=S)NCC1CCCO1 (centres undefined)	11*	-0.33*
Cc1cnc(=O)[nH]c1SCC(=O)c1ccc(F)cc1	0.71	0.45
COc1cc(C(=O)NCC(=O)N/N=C/c2ccco2)cc(OC)c1OC	0.25	-0.08
CCCC(=O)Nc1cccc(NC(=O)c2ccc([N+](=O)[O-])cc2Cl)c1	0.42	0.06
CCn1c(CNC(=O)c2ccco2)nnc1SCC(=O)Nc1ccccc1Cl	0.58	-1
CCNC(=O)COC(=O)c1cc(C)nc2ccccc12	0.91	0.07
CC(=O)Cn1nnc(-c2ccc(C(F)(F)F)cc2)n1	1.1	0.06
CCOC(=O)c1sc2nccc(OC)c2c1N=CN(C)C	0.75	0.02
COc1ccc(S(=O)(=O)/N=C2/C=CC(=O)C(C)=C2C)cc1	2.8	1
CCCCOc1ccc(C(=O)OCC(=O)Nc2cc(C)c(C)cc2[N+](=O)[O-])cc1	2.1	-1.7

These rows are one share of the data. The share of hits here may be higher or lower than overall.
